# Screening data (PubChem)
# Lassa entry inh = inhibitors of Lassa virus binding or cell entry. AID 540256. Lassa virus pseudotype entry inhibition, cell reporter; control for the full effect not named in the record. hit rate 1.2% among 300,000. Potency, µM (top dose mostly 37.9 µM), for inactives: at the top dose activity change, negative = inhibition, actives largely listed as inhibitors; active means well fitted inhibition curve with a large enough effect; inconclusive means small, poorly fitted or top-dose-only effect, or effect the other way; inactive means flat fitted curve, though single readings scatter; tested in HEK293 cells; also: % is scaled to controls: 0 for no effect and ±100 for the full control effect; nearly all actives have a fitted effect of over 50% in size; luciferase read-out
# SARS PLpro yeast = inhibitors of SARS-CoV papain-like protease in yeast; S. cerevisiae expressing SARS-CoV PLpro, growth rescue; control for the full effect not named in the record; Potency, µM (series often up to 32.9 µM), for the others: at the top dose activity, positive = growth rescue; hit rate 0.19% among 330,000; active means well fitted rising curve with a large enough effect; inconclusive means small, poorly fitted or top-dose-only effect; inactive means no such curve, though single readings can be large or run the other way; also: 0% is about no effect; nearly all actives have a fitted effect of over 55% in size; growth read by luminescence after 48 h
# StopGo reporter = lowers the luciferase signal of an FMDV 2A StopGo reporter. human cells with a luciferase reporter of 2A StopGo recoding; control for the full effect not named in the record. Potency, µM (doses to about 57.9 µM), for inactives: at the highest dose signal change, negative = less light. hit rate 1.2% among 410,000. AID 1159524; active = well fitted falling curve with a large enough effect; inconclusive = small, poorly fitted or top-dose-only effect; inactive = no such curve, though single readings can be large or run the other way; tested in HEK293T cells; also: % is scaled to controls: 0 for no effect and ±100 for the full control effect; nearly all actives have a fitted effect of over 45% in size; luciferase light after 4 h
# RE007 growth inh = less growth of the S. pombe RE007 Vpr strain. S. pombe RE007 Vpr strain, BacTiter-Glo ATP luminescence, 24 h; control for the full effect not named in the record. hit rate 0.21% among 360,000. Potency, µM (series often up to 92.2 µM), for the others: at the top dose activity change, negative = less growth; active = well fitted falling curve with a large enough effect; inconclusive = small, poorly fitted or top-dose-only effect; inactive = no such curve, though single readings can be large or run the other way;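 also: % is scaled to controls: 0 for no effect and ±100 for the full control effect; nearly all actives have a fitted effect of over 50% in size; the assay follows cell death caused by Vpr and the record does not say whether a fall means rescue or toxicity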
#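 Fission yeast strain RE007, carrying one chromosomally integrated HIV-1 vpr copy, was seeded at OD 0.01 in PMG+AL medium with 23 nL pinned compound. After 24 h at 30 °C and 99% humidity, viability was read by BacTiter-Glo luminescence.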
# NS1 inh = influenza NS1 inhibition; S. cerevisiae slowed by influenza A NS1, growth recovery by OD600; Potency, µM (series often up to 46.1 µM), for inactives: top-dose activity, positive = more growth; hit rate 0.4% among 270,000; active means well fitted rising curve with a large enough effect; inconclusive means small, poorly fitted or top-dose-only effect; inactive means no such curve, though single readings can be large or run the other way; also: nearly all actives have a fitted effect of over 50% in size
#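 Compounds were scored for reversing the slow growth caused by influenza A NS1 in S. cerevisiae, measured by optical density at 600 nm. Assay medium contained 2% galactose at pH 6.0; NS1-free yeast of the same strain were the positive control.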
# MARV entry inh = Marburg virus entry inhibition | Marburg virus pseudotyped entry inhibition, cell reporter; control for the full effect not named in the record; about a third of the inactives were read at about 46 µM | Potency, µM (doses to about 37.8 µM), without a hit: top-dose activity change, negative = inhibition, usual class: inhibitors | hit rate 1.8% among 300,000 | AID 540276; active = well fitted inhibition curve with a large enough effect; inconclusive = small, poorly fitted or top-dose-only effect, or effect the other way; inactive = flat fitted curve, though single readings scatter; tested in HEK293 cells; about a fifth of its hits are not listed in these tables; also: % is scaled to controls: 0 for no effect and ±100 for the full control effect; luciferase read-out
# Cruzain inh Det = inhibitors of Trypanosoma cruzi cruzain with detergent; P25779; purified cruzain, Z-FR-AMC fluorescence, 0.01% Triton; Potency, µM, for inactives: max response, negative = inhibition, most hits filed as inhibitors; hit rate 0.43% among 200,000; AID 1478;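 also: plate controls were neutral wells for no effect and buffer without enzyme for full effect; nearly all actives have a fitted effect of over 40% in size; top concentration of the series not given in the record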
# Target sequence (P25779 123-467 limits assumed): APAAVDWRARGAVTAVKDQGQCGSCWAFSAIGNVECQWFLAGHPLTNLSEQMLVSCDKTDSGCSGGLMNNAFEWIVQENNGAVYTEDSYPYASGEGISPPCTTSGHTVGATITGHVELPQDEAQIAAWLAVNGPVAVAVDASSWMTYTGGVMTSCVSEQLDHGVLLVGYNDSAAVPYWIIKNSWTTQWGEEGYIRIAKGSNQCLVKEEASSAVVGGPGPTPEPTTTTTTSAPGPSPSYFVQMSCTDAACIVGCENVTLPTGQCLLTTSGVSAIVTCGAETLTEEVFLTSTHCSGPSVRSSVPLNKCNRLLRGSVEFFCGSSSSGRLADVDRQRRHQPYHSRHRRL
#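 Compounds were screened in titration against cruzain (1.5 nM) with 0.01% Triton X-100 to counter colloidal aggregation. Activity was the AMC fluorescence increase over 60 s after adding 2 uM Z-FR-AMC at pH 5.5.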
# Cruzain noTriton = blocks cruzain activity in detergent-free assay; P25779; purified cruzain, Z-FR-AMC fluorescence, no detergent; Potency, µM, without a hit: max response, negative = inhibition, most hits filed as inhibitors; hit rate 2.3% among 200,000;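 also: plate controls were enzyme without inhibitor for no effect and buffer without enzyme for full effect; nearly all actives have a fitted effect of over 40% in size; top concentration of the series not given in the record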
#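 Detergent-free condition (0.00005% Triton X-100) in acetate buffer pH 5.5 with DTT. 1.5 nM enzyme and compound were pre-mixed 15 min, then 2 uM Z-FR-AMC substrate added; reaction progress from fluorescence change between first and third reads (60 s).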
# Numbers without * were called inactive; ? = inconclusive; · = not tested or not shown; [ ] = dose if it differs, or a comment. Unless noted, calls follow the shape of the dose curve; as a rule, active = well fitted curve in the direction sought with a large enough effect; inconclusive = small, poorly fitted or top-dose-only effect, or another doubt; inactive = no such curve, though single readings can be large; an effect the other way counts as inactive or inconclusive. Potency is read from the fitted curve at half-maximal effect.
SMILES,Lassa entry inh,SARS PLpro yeast,StopGo reporter,RE007 growth inh,NS1 inh,MARV entry inh,Cruzain inh Det,Cruzain noTriton
CCC1=Nc2cc(C(=O)NCCc3ccccc3)ccc2Sc2ccc(Cl)cc21,?,·,-2%,·,·,-14%[46.1 µM],-0.9%,-8%
Cc1cc(NC(=O)C2C3C(=O)N(Cc4ccc(Cl)cc4)C(C(=O)NC(C)(C)C)C34C=CC2(C)O4)no1 (stereo not given),2%,-9%,-15%,-29%,2%,-22%,3.1%,-4%
CCOc1ccc(CCNC(=O)c2c(C)oc3ncn(C)c(=O)c23)cc1,-1%[46.1 µM],·,-6%,·,·,·,-0.5%,-9%
CCCN1CCN(c2ncnc3c2nnn3Cc2ccccc2)CC1,?,-5%,0%,15%,4%,?,2.7%,10%
CC(C)(C)c1csc(NC(=O)Cn2c(=O)oc3ccccc32)n1,-17%,-4%,-7%,7%,-6%,-5%,1.3%,?
COc1ccc(/C=C2/NC(=O)N(CC(=O)Nc3cccc(C)c3)C2=O)cc1O,-1%,1%,3%,1%,2%,-3%[46.1 µM],·,·
CC1CC(C)CN(C(=O)c2ccc3c(c2)OCCO3)C1 (stereo not given),-7%,0%,20%,12%,·,-27%,·,·
O=C(c1ccccc1)N1CCN(C(=O)c2cc3ccccc3oc2=O)CC1,·,0%,7%,-21%,7%,14%[46.1 µM],·,·
CN(Cc1ccccc1)S(=O)(=O)c1ccc(C(=O)Nc2nnc(C3CC3)o2)cc1,?,5%,-2%,0%,-23%,?,-5.4%,26%
CSc1ccc(N/N=C(/C#N)S(=O)(=O)C(C)(C)C)cc1,?,2%,-29%,-13%,·,-27%[46.1 µM],·,·
Cc1ccc(-c2nc3cccnc3s2)cc1NC(=O)c1ccco1,18%,·,·,1%,-3%,?,·,·
Cc1cc(F)ccc1S(=O)(=O)Nc1ccc2oc3c(c2c1)CC(C)CC3 (stereo not given),-2%[46.1 µM],·,-4%,·,·,?,-3.7%,-13%
CN1CCN(S(=O)(=O)c2cccc(C(=O)NC3(C)CCS(=O)(=O)C3)c2)CC1 (stereo not given),-1%,1%,0%,-21%,·,17%,·,·
Cc1nn(CC(C)C)c(Cl)c1C(=O)NC1CCC(C)CC1 (stereo not given),9%,-3%,21%,15%,·,?,·,·
O/N=C1\CC(O)Cc2nonc21 (stereo not given),0%,3%,10%,6%,4%,-1%,2.0%,7%
CCN(CC(=O)Nc1ccc(NC(C)=O)cc1)C(=O)c1cccc(S(=O)(=O)N2CCc3ccccc3C2)c1,0%,12%,0%,-17%,·,4%,·,·
CCCCSc1nc(N)c(C#N)c(-c2cccs2)c1C#N,-19%,-3%,?,1%,-60%,?,-3.8%,-17%
Nc1sccc1C(=O)c1ccccc1,-7%,-7%,-2%,-16%,-24%,7%,-1.5%,?
CCN(CC(=O)Nc1ccc(C)c(S(=O)(=O)N(C)C)c1)Cc1ccccc1,·,-1%,17%,-2%,-2%,·,·,·
COc1ccc(CN2CCC(C(=O)c3cccc(Cl)c3)CC2)cc1,·,3%,-14%,-13%,-25%,·,·,·
Cc1ccc(-n2ncc3c(=O)n(-c4ccc(C)c(C)c4)c(C)nc32)cc1,1%,-1%,?,-3%,-3%,?,-3.2%,4%
CN(C)S(=O)(=O)c1cccc(NC(=O)CSc2ncnc3ccccc23)c1,?,3%,?,-12%,1%,?,·,·
Cc1ccc(-c2nnc(CSc3nnc(COc4cccc5ccccc45)n3-c3ccccc3)o2)cc1,?,-8%,?,-12%,?,?,-4.0%,?
CCCn1c(C(C)NC(=O)c2ccccc2)nc2ccccc21 (stereo not given),-16%,-4%,·,0%,-8%,-17%,-2.9%,6%
Cc1ccc(S(=O)(=O)n2nc(C)c(S(=O)(=O)N3CCCCCC3)c2C)cc1C,6%[46.1 µM],·,13%,·,·,·,0.4%,10%
SMILES,Lassa entry inh,SARS PLpro yeast,StopGo reporter,RE007 growth inh,NS1 inh,MARV entry inh,Cruzain inh Det,Cruzain noTriton
Cc1nc(SCC(=O)O)c2oc3ccccc3c2n1,-20%,-1%,19%,-1%,-9%,10%,-3.4%,3%
CC(=O)Nc1ccc(-n2nnnc2SCC(=O)NCc2cccs2)cc1,·,-1%,-6%,10%,1%,·,·,·
Cc1ccc(C)c(NC(=O)CSc2ncc3c(n2)-c2ccc(Cl)cc2N(C)S3(=O)=O)c1,25%[46.1 µM],·,-25%,·,·,·,2.4%,-5%
CCCCn1c(O)c(C=NCCCN(C)C)c(=O)[nH]c1=O,1%,-2%,-1%,-1%,0%,2%,3.4%,1%
COCCNC(=O)CN1C(=O)NC2(CCCCCC2)C1=O,·,1%,-9%,3%,-2%,·,·,·
O=C(CCn1c(=O)sc2ccccc21)Nc1cccnc1,-4%,22%,·,10%,-1%,25%,-2.6%,-6%
O=C(Nc1ccc2c(c1)nc1n2CCN(C2CCCCC2)C1)c1ccco1,·,2%,-17%,0%,0%,·,·,·
Cc1ccc(-n2c(SCC(=O)NCC3CCCO3)nc3ccccc3c2=O)cc1C (stereo not given),6%,-4%,-10%,-15%,·,-2%[46.1 µM],·,·
O=C(CN1CCOCC1)Nc1ccc([N+](=O)[O-])cc1,·,-3%,-10%,-1%,0%,·,·,·
O=C(NCc1cccc(F)c1)c1ccc2nc(CCc3ccccc3)oc2c1,-4%[46.1 µM],·,16%,·,·,·,-5.1%,11%
COc1ccc(/C=N/n2cnnc2SCCO)cc1OC,-5%,7%,36%[activator],-16%,13%,4%,-5.0%,-5%
Cn1c(O)c(C=NC2CCCCC2)c(=O)[nH]c1=S,5%,-1%,7%,3%,1%,-14%[46.1 µM],·,·
CNS(=O)(=O)c1cn(CC(=O)Nc2ccc(OC)c(Cl)c2)cc1S(=O)(=O)NC,22%[46.1 µM],·,23%,·,·,·,-8.2%,-5%
CCOC(=O)C(CCCOc1cccc(CC)c1)C(=O)OCC,?,-2%,2%,12%,1%,-7%,-2.3%,15%
CCOCc1nnc(NC(=O)c2c(-c3ccccc3)noc2C)s1,-1%,0%,-16%,-4%,10%,18%[46.1 µM],·,·
COc1cc2nc(SCc3ccc(C)cc3)n3nc(CCn4nc(C)cc4C)nc3c2cc1OC,-19%[46.1 µM],·,-13%,·,·,0%[46.1 µM],0.5%,-9%
Cc1nnsc1-c1c(C(=O)Oc2ccccc2)c(C)nn1-c1ccccc1,·,1%,-23%,-9%,-4%,·,·,·
COc1cc([C@H]2[C@@H]3CCCC[C@]3(O)CCN2CC(=O)Nc2ccc(C)cc2C)ccc1O,?,1%,?,32%,1%,?,7.7%,-5%
COc1ccc(C2c3[nH]c4ccccc4c3CCN2Cc2cccn2-c2ncccn2)cc1C (stereo not given),?,-2%,-2%,-15%,3%,7.1µM*,·,·
Cc1cc(C)n(C(=O)CCNC(=O)c2ccccc2Br)n1,19%,3%,-21%,-1%,-60%,22%,1.3%,-2%
Cc1cccc(NC(=O)/C=C/c2ccc([N+](=O)[O-])s2)c1,?,-6%,0%,?,6%,?,-3.5%,?
COc1cccc(C(=O)N=c2sc3cc(S(C)(=O)=O)ccc3n2C)c1,14%,-5%,7%,-20%,-3%,0%[46.1 µM],·,·
CCN(CCC#N)c1ccc(/C=N/Nc2nc(C)cc(=O)[nH]2)c(C)c1,12%[46.1 µM],14%,-1%,-11%,12%,13%[46.1 µM],-17%,-10%
COc1ccc(Cl)cc1NC(=O)CCc1c(C)nc2c(c1C)c(=O)n(C)c(=O)n2C,-7%[46.1 µM],·,-18%,·,·,16%[46.1 µM],0.6%,1%
O=c1c2oc3ccccc3c2ncn1Cc1ccccc1F,2%,7%,28%,1%,-21%,12%,-2.8%,2%
SMILES,Lassa entry inh,SARS PLpro yeast,StopGo reporter,RE007 growth inh,NS1 inh,MARV entry inh,Cruzain inh Det,Cruzain noTriton
Cc1cc(C)cc(NC2=NCC(=O)N2Cc2ccccc2)c1,1%,-18%,15%,22%,-54%,5%[46.1 µM],0.9%,-7%
Cc1cc2nn(-c3cccc4ccccc34)nc2cc1N,28%,-3%,38%[activator],7%,-48%,?,-3.3%,16µM*
O=C(O)CC(NC(=O)C12CC3CC(CC(C3)C1)C2)c1cccc(Cl)c1 (stereo not given),·,1%,25%,-16%,4%,·,·,·
CCOC(=O)c1ccc(NC(=O)CC2COc3ccccc3O2)cc1 (stereo not given),8%,-17%,-14%,-22%,·,1%,-9.2%,-16%
COc1ccc2c(c1)cc(C(=O)N[C@H](C(=O)N1CCC[C@H]1C(=O)O)C(C)C)n2C,·,-9%,1%,0%,14%,·,·,·
COc1cc(CN2CCN(c3cc(C)ccc3C)CC2)ccc1O,·,3%,-29%,-12%,0%,-1%,-3.3%,-5%
O=C(COC(=O)c1ccc2c(c1)S(=O)(=O)c1ccccc1C2=O)NC1CC1,3%[46.1 µM],0%,-15%,6%,·,?,·,·
Cc1ccn2cc(C34CC5CC(CC(C5)C3)C4)nc2c1,9%,-1%,6%,-14%,-8%,?,·,·
COc1cccc(CCNC(=O)Cn2c(-c3cccs3)cc3ccccc32)c1,6%[46.1 µM],·,-4%,·,·,-9%[46.1 µM],-8.5%,1%
CCOC(=O)c1c(CSc2ccc(C)cc2)n(C)c2cc(Br)c(O)c(CN(C)C)c12,·,-4%,?,2%,12%,·,·,·
CCN1C(=O)/C(=C2/Sc3ccccc3N2CC)S/C1=N\c1ncn[nH]1,?,12%,-29%,1%,12%,?,·,·
O=C(c1cc(-c2cccc(Cl)c2)on1)N1CCCC1,?,-12%,33%[activator],0%,-17%,-2%[46.1 µM],·,·
CCCCCC(=O)Cc1cc(O)cc2c1C(=O)Oc1cc(O)c(C(=O)O)c(CCCCC)c1O2,·,1%,-11%,9%,7%,·,·,·
NC(=O)c1ccc2c(=O)n3c(-c4cccs4)csc3nc2c1,·,4%,39%[activator],-7%,4%,·,·,·
COc1cc(OC)c(OC)cc1/C=C1/Cc2ccccc2C1=O,·,-3%,-2%,5%,6%,·,·,·
N#Cc1c(-c2ccco2)c2c([nH]c1=S)CCCC2,26%,1%,-8%,8%,?,4%,-6.6%,-25%
CCOc1ccc2nc(NC(=O)C34CC5CC(CC(NC(C)=O)(C5)C3)C4)sc2c1,?,-3%,-25%,-4%,7%,-10%,·,·
NC(=O)c1ncc(C(F)(F)F)cc1Oc1cccnc1,-14%,0%,-2%,5%,·,27%[46.1 µM],·,·
CCc1ccc(OC(C)C(=O)Nc2ccccc2C(=O)N2CCOCC2)cc1 (stereo not given),-13%,2%,-6%,-9%,14%,-8%,·,·
